High-throughput results (PubChem)
MgrA DNA FP = modulators of Staphylococcus aureus MgrA DNA binding; fluorescence polarization; inhibition, %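 (about 10 µg/mL by stock and volumes)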; 84,000 tested, 0.13% active; AID 602314;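 active means above 50% in either of two replicates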;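 further: 0% = protein plus DNA without compound and 100% = DNA alone without protein; higher means less MgrA bound to DNA so lower polarization; one replicate is shown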
S aureus helic = S. aureus DNA helicase inhibition; purified S. aureus helicase, fluorescence unwinding assay; about half of the hits fall short of the stated cut; inhibition, %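 (tested at about 80 µM)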; AID 485395; 120,000 tested, 0.05% active;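 active means both duplicates at 50% or more, or one of them with a favoured structure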;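 further: 0% = mean of negative control wells and 100% = mean of positive control wells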
The depositor's hits bear a star; x = no result given; & = joins results of further samples. Not all compounds are listed, so the mix of outcomes need not match the whole.

SMILES | MgrA DNA FP | S aureus helic
O=C(O)c1c(CNCc2cccnc2)c2ccccc2n1Cc1ccccc1 | 0.4 | 7
Cn1c(=O)oc2cc(S(=O)(=O)CCC(=O)NC3CCN(Cc4ccccc4)CC3)ccc21 | x | -3
CCCc1nn(-c2ccccc2)c2c1C(c1ccc(OC)cc1)C(C#N)=C(N)O2 (stereo not drawn) | x | 8
CCCCCCCC1CC(CSc2ncn[nH]2)OC1=O (stereo not drawn) | x | 27
N#CCSc1nnc(-c2ccc(Br)cc2)n1C1CCCCC1 | x | -1
CCc1nc2sc3c(c2c(=O)[nH]1)CCC3 | x | 5
CC(C)C(NS(=O)(=O)c1ccccc1)C(=O)Nc1ccccc1 (stereo not drawn) | 2.0 | 23
Cc1cc(-c2nn(C)c(=O)c3ccccc23)cc(C)c1OC(=O)Nc1ccc(OC(F)(F)F)cc1 | 0.7 | x
COc1ccc(C2C(C(=O)N3CCN(c4ccc(OC)cc4)CC3)c3ccccc3C(=O)N2C)cc1 (stereo not drawn) | x | -44
NS(=O)(=O)c1ccc(N=C2C(=O)Nc3ccccc32)cc1 | x | 14
CCOC(=O)c1c(C)oc2c1c(C=NCCCN1CCOCC1)c(O)c1ccccc12 | x | 16
CC(=O)Nc1nc(-c2cccs2)nc2c1c(=O)oc1ccccc12 | -0.7 | 9
CC(C)(C)c1cc2oc3c(c2c(C=NCc2ccncc2)c1O)CCCC3 | 3.8 | 9
Nc1cc(Nc2ccccc2)ccn1 | x | 7
O=C(O)Cc1ccc(F)cc1 | 1.5 | x
O=C(Nc1ccccc1C(=O)NCCc1ccccc1)c1ccno1 | x | -7
CSc1sc(C(N)=O)cc1C#N | -6.8 | x
CC1Cc2cc(C(=O)NCC(c3ccco3)N3CCCC3)ccc2N1S(C)(=O)=O (stereo not drawn) | x | -7
O=C(NCC1CCCO1)c1ccc(F)c(F)c1 (stereo not drawn) | -1.6 | 15
CNC(=O)c1ccc(C(C)(C)C)cc1 | -3.0 | 14
Cc1cc(C(=O)C(C)OC(=O)CN2CCSC2=O)c(C)n1-c1ccc(Cl)cc1 (stereo not drawn) | x | 2
CC1CCCCN1C(=O)CSc1nc2ccccc2[nH]1 (stereo not drawn) | x | -3
C=C1C2(C(=O)Nc3ccc(Br)cn3)CCC(C2)C1(C)C (stereo not drawn) | x | 16
COC(=O)c1cc(C)nc2c1c(=O)n(C)c(=O)n2C | x | 24
O=C(O)CN1C(=O)/C(=c2/sc3nc4ccccc4n3c2=O)c2cc(Br)ccc21 | 3.0 | 6
OCCn1c(-c2ccc(-c3ccccc3)cc2)csc1=Nc1ccccc1 | -4.8 | -2
O=C(Cn1cnc2sccc2c1=O)NC(=O)NC1CCCC1 | x | -16
CC(=O)N1CCSc2cc(S(=O)(=O)Nc3cccc(C)c3)ccc21 | 1.5 | 1
O=C(CCC(=O)c1ccccc1)Nc1cccnc1 | -0.5 | 18
OCCc1ccc(-c2ccc(Cl)cc2)o1 | x | -3
Cc1cc(CNC(=O)COC(=O)C2CC3CCCC(C2)C3=O)cc(C)c1O (stereo not drawn) | x | -4
Cc1cc(C)c2nc(N3CCCN(C(=O)c4ccco4)CC3)c(C#N)cc2c1 | 49* | 0
O=C(N/N=C/c1ccc(-c2ccc(S(=O)(=O)Nc3ncccn3)cc2)o1)C12CC3CC(CC(C3)C1)C2 | x | 9
COc1ccc(Nc2cc(C(=O)NC3CCCCC3)c3ccccc3n2)c(OC)c1 | 0.8 | -8
N#CCSc1nnc(-c2ccccc2)c2ccccc12 | x | 6
CCOC(=O)C(CC)Sc1nnc(-c2ccccc2Br)n1C (stereo not drawn) | -1.4 | 19
Cc1ccc(NC(=O)CSC(=N)N)cc1 | 0.9 | -1
CCOCCC(=O)Nc1ccccc1Sc1ccccc1 | 1.9 | -7
CCOC(=O)c1c(N)sc2c1CCN(C)C2 | 2.4 | x
Cc1nc(C(=O)NCC(=O)c2ccc(Cl)cc2)c(C(F)(F)F)o1 | -1.9 | x
CCC(=O)N(CCC(c1ccccc1)c1ccco1)Cc1ccc(N(C)C)cc1 (stereo not drawn) | x | -2
O=C(Nc1ccc(-n2nc(C(F)(F)F)cc2C(F)(F)F)cc1)c1ccc(OC(F)(F)F)cc1 | 5.8 | x
O=C(O)CSCC(=O)N1CCN(c2ccnc3cc(Cl)ccc23)CC1 | 0.7 | x
COc1ccc(S(=O)(=O)N2CCOCC2)cc1-c1nnc2c3ccccc3c(C)nn12 | x | 7
O=C(OC1CCCCC1)c1cc2ccccc2oc1=O | x | -16
Nc1nc2c(nc(N3CCCCC3)n2[C@@H]2O[C@H](CO)[C@@H](O)[C@H]2O)c(=O)[nH]1 | x | 12
CCOC(=O)c1c(C)cc2ccccn12 | 4.0 | -15
Cc1ccc(/C=C2/Sc3ccccc3NC2=O)cc1 | 1.1 | 1
COc1ccc(C(N)=O)cc1OC(C)C | 3.2 | x
CC1CCN(C(=O)/C(=C/C=C\c2ccccc2)NC(=O)c2ccccc2)CC1 | -3.2 | 0
C/C(=N\O)c1ccc(Cl)cc1Cl | -1.3 | x
CCC(=O)Oc1c(Sc2ccc(C)cc2)c(C)nn1C(C)(C)C | 1.1 | 4
O=C(Nc1ccc(-n2cncn2)cc1)c1ccccc1N1CCOCC1 | -0.8 | x
Nc1nc(-c2ccccc2)c(-c2ccccc2)s1 | x | 9&10
CC(CN1CCCCC1)NC(=O)c1cccs1 (stereo not drawn) | 2.1 | 7
COc1ccc2cc3c(NC(=O)c4cnccn4)n[nH]c3nc2c1 | x | 1
CC1(C)C=Cc2ccc(OCC(=O)Nc3ccccc3)cc2O1 | -1.8 | x
Cc1[nH]c(C)c(S(=O)(=O)NC(C)(C)C)c1C(=O)N1CCCC1 | x | -16
Cc1ccc(C(=O)Nc2sccc2C(N)=O)cc1C | x | 22
Cc1ccc(-n2c(N)c(C#N)c3nc4ccccc4nc32)cc1C | 0.7 | 8
(continued)
SMILES | MgrA DNA FP | S aureus helic
Cc1cc(NC(=O)Cc2ccccc2)no1 | -0.7 | 6
O=S(=O)(c1cccs1)N1CCN(c2ccccn2)CC1 | x | 1
CN(c1ccc(C(=O)NCC2CCCO2)cc1)S(C)(=O)=O (stereo not drawn) | -0.2 | 20
CCOc1ccccc1/C=C/C(=O)NCC(=O)N1CCC(N(C)C2CCCC2)CC1 | x | 16
Clc1ccc(C2=CSc3nnc(Cc4ccccc4)n3N2)cc1 | x | 21
COc1cc(C(=O)Nc2sc(C(=O)N3CCOCC3)c(C)c2C#N)cc(OC)c1OC | -0.8 | 5
COc1ccccc1CNc1ccc2c(c1)ncn2C(C)C | -7.0 | 10
COc1ccc(-c2nnc(SCc3nc(N)nc(Nc4ccccc4C)n3)o2)cc1OC | x | 6
CCOC(=O)Cn1nc(-c2ccccc2)c2cnc3ccccc3c21 | x | 14
Cn1nnnc1SCC(=O)NC(=O)c1ccccc1Br | x | 5
O=C1SC(c2ccccc2)=N/C1=C/c1ccco1 | 0.6 | 6
Cc1ccc(NC(=O)CSc2nc3c(oc4ccccc43)c(=O)n2Cc2ccc(F)cc2)c(C)c1 | 1.2 | -8
CC(=O)Nc1ccc(CCc2nc3ccccc3[nH]2)cc1 | -2.2 | 10
CCOc1ccc2[nH]cc(C(=O)O)c(=O)c2c1 | 0.2 | -8
O=C(Cn1c(=O)n(CC(=O)NC2CCCCC2)c2ccccc21)NC1CCCCC1 | x | 14
COc1ccccc1NC(=O)c1oc2ccccc2c1NC(=O)Cc1cccc(C)c1 | -0.3 | 16
Cc1cc(C)cc(NC(=O)COC(=O)c2ccc(F)cc2F)c1 | -2.9 | 10
CC(=O)Nc1cccc(N2C(=O)C=CC2=O)c1 | 5.8 | 8
CN(CCOc1ccccc1)CC(=O)Nc1cccc(C#N)c1 | x | 3
COC(=O)c1ccc(CN(c2ccc(OC)cc2)S(=O)(=O)c2cccc(C)c2)o1 | x | 9
CCCCN(C)c1nnc(NC(=O)Nc2ccc(CC)cc2)s1 | x | 9
O=C(c1ccc(F)cc1)C1CCN(S(=O)(=O)c2ccc(F)cc2)CC1 | 0.2 | 13
Cc1ccc2nc(Nc3ccccc3)nc(-c3ccccc3)c2c1 | -0.1 | 19
S=c1[nH]nc(-c2ccccc2)n1/N=C/C=C/c1ccco1 | x | 9
CCOC(=O)NNc1ncc(C(F)(F)F)cc1Cl | x | -14
COc1ccccc1-n1c(-c2ccc(F)cc2)coc1=O | -1.2 | x
CC1=CC(=O)/C(=C\c2c(O)cc(C)oc2=O)C(=O)O1 | x | -30
Cc1nc2ccccn2c1/C(O)=C1\C(=O)C(=O)N(CCCN2CCOCC2)C1c1cccc(F)c1 (stereo not drawn) | 0.5 | -4
CCN(CC)c1cc(C)c2cc(NC(=O)c3ccco3)ccc2n1 | x | -4
CC1(C)CC(=O)C2=C(C1)OC(N)=C(C#N)C21C(=O)Nc2ccc(Br)cc21 (stereo not drawn) | 1.0 | x
CCCCN(C1CCN(C(C)=O)CC1)S(=O)(=O)c1csc(C(N)=O)c1 | x | 15
O=C1CN(C(=O)CSc2nnc(-c3ccccc3)n2-c2ccccc2)c2ccccc2N1 | x | -15
Cc1ccccc1Cn1c(=O)n(CCC(=O)NCCc2ccccc2)c(=O)c2ccccc21 | -0.2 | 7
O=c1[nH]c(=O)n([C@H]2CC(O)[C@@H](CO)O2)cc1Br (stereo partly drawn) | 0.2 | x
CCN1CCCC1CNC(=O)c1ccc2c(=O)n3c(nc2c1)CCCCC3 (stereo not drawn) | -4.2 | 14
O=C(O)C(Cc1ccc(O)cc1)NC1CCS(=O)(=O)C1 (stereo not drawn) | x | 10
OC1C2C3CC4C2C(O)C2C1C3C42 (stereo not drawn) | x | 3
NS(=O)(=O)c1ccc(N/C=C2/CCCCC2=O)cc1 | 2.5 | x
COc1ccc(Cl)cc1S(=O)(=O)N1CCN(C23CC4CC(CC(C4)C2)C3)CC1 | 1.5 | 0
COc1cccc(C2NC(=O)NC3=C2CCc2ccccc23)c1 (stereo not drawn) | 5.8 | -8
Cn1cc(/C=C2\SC(=NC3CCCCC3)NC2=O)cn1 | x | -3
CN(C)C1(CNC(=O)COc2ccc3oc4c(c3c2)CCCC4)CCCCC1 | x | -9
O=C(NC(=S)N1CCN(Cc2ccccc2)CC1)c1ccccc1 | 2.3 | -8
N#CCNC(=O)c1ccc(-c2ccccc2)cc1 | -2.8 | 16
O=C(c1ccccc1)c1ccc(C(=O)c2ccccc2)cc1 | -2.1 | 8
CN1CCC(OC(=O)c2ccc(F)cc2)CC1 | -2.0 | 13
O=C1CN(CC(=O)Nc2ccc(C(F)(F)F)cc2)CCN1 | x | -11
CC(=O)N1CCN(C(=O)c2ccccc2CSc2nc(C)cs2)CC1 | x | 11
Cc1cc(=O)n2[nH]c(-c3ccccc3)cc2n1 | x | -5
CN(C)S(=O)(=O)N1CCC(c2nn(-c3ccccc3)c(=O)o2)CC1 | x | -13
CCSC1(SCC)N=C(N)C2(C#N)C(c3ccccc3)NC(C)=CC12C#N (stereo not drawn) | x | 4
C/C(Nc1ccc(OC(F)(F)F)cc1)=C1/CCOC1=O | -0.9 | x
c1csc(-c2nnc(CSc3nnc(-c4ccc5c(c4)OCO5)o3)o2)c1 | x | -33
NCCCS(=O)(=O)O | 0.5 | x
CSc1cc(-c2cccs2)nc(-c2ccc(Cl)cc2)n1 | 3.9 | x
CC(/C=N/N1CCOCC1)=C\c1ccccc1 | x | 23
O=C(CCC1=NS(=O)(=O)c2ccccc2N1)NC1CCCCCCC1 | -0.2 | -1
N#CC1=C(SCC(=O)Nc2ccc(Cl)cc2)NC(=O)C(C#N)C12CCCCC2 (stereo not drawn) | x | -25
COc1ccc(/C(N)=N/OC(=O)c2c(-c3ccccc3Cl)noc2C)cc1 | x | 21
NCCCCOc1ccc(F)cc1 | x | -5
COc1ccc(C(O)C23CC4CC(CC(C4)C2)C3)cc1 (stereo not drawn) | 0.1 | -1
CCCCC1=NN(C(=O)c2ccccc2)C(O)(C(F)(F)F)C1 (stereo not drawn) | 2.3 | 6

By substructure: those above containing an aryl methoxy group
SMILES | MgrA DNA FP | S aureus helic
CCCc1nn(-c2ccccc2)c2c1C(c1ccc(OC)cc1)C(C#N)=C(N)O2 (stereo not drawn) | x | 8
COc1ccc(C2C(C(=O)N3CCN(c4ccc(OC)cc4)CC3)c3ccccc3C(=O)N2C)cc1 (stereo not drawn) | x | -44
COc1ccc(Nc2cc(C(=O)NC3CCCCC3)c3ccccc3n2)c(OC)c1 | 0.8 | -8
COc1ccc(S(=O)(=O)N2CCOCC2)cc1-c1nnc2c3ccccc3c(C)nn12 | x | 7
COc1ccc(C(N)=O)cc1OC(C)C | 3.2 | x
COc1ccc2cc3c(NC(=O)c4cnccn4)n[nH]c3nc2c1 | x | 1
COc1cc(C(=O)Nc2sc(C(=O)N3CCOCC3)c(C)c2C#N)cc(OC)c1OC | -0.8 | 5
COc1ccccc1CNc1ccc2c(c1)ncn2C(C)C | -7.0 | 10
COc1ccc(-c2nnc(SCc3nc(N)nc(Nc4ccccc4C)n3)o2)cc1OC | x | 6
COc1ccccc1NC(=O)c1oc2ccccc2c1NC(=O)Cc1cccc(C)c1 | -0.3 | 16
COC(=O)c1ccc(CN(c2ccc(OC)cc2)S(=O)(=O)c2cccc(C)c2)o1 | x | 9
COc1ccccc1-n1c(-c2ccc(F)cc2)coc1=O | -1.2 | x
COc1ccc(Cl)cc1S(=O)(=O)N1CCN(C23CC4CC(CC(C4)C2)C3)CC1 | 1.5 | 0
COc1cccc(C2NC(=O)NC3=C2CCc2ccccc23)c1 (stereo not drawn) | 5.8 | -8
COc1ccc(/C(N)=N/OC(=O)c2c(-c3ccccc3Cl)noc2C)cc1 | x | 21
COc1ccc(C(O)C23CC4CC(CC(C4)C2)C3)cc1 (stereo not drawn) | 0.1 | -1

Two entries from above, with each value named.
c1csc(-c2nnc(CSc3nnc(-c4ccc5c(c4)OCO5)o3)o2)c1
  MgrA DNA FP: x
  S aureus helic: -33

NCCCS(=O)(=O)O
  MgrA DNA FP: 0.5
  S aureus helic: x
